CBX7 inh – blocks human CBX7 binding to H3K27me3 peptide; normalised signal (fraction of DMSO) (no concentration beside the values); 66,000 compounds, 1.1% hits; AlphaScreen His6-CBX7 / biotin-H3K27me3 peptide binding; stronger effect = lower value; in the data active means normalised signal below about 0.5;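 further: 100 nL library stock added to about 20 µL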
Target sequence (O95931 whole entry, looked up): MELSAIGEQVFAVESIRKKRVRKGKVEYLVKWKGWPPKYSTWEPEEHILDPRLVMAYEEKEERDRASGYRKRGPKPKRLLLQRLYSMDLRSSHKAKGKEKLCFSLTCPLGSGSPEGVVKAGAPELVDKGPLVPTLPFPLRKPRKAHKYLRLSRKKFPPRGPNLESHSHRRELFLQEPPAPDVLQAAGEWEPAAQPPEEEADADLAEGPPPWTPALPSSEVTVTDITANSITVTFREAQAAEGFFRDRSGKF
CBX7 inh z-score – further read-out of CBX7 inh, marked with its call; z-score; measured here: z-score of CBX7 signal; some inactives read as strong as hits; reference of the scale not given here;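 same signal on another scale; lower means less binding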
* marks the source's active call; other numbers are inactive results; & = joins results of further samples. Only part of the results is shown. The share of hits here may be higher or lower than overall.

SMILES | CBX7 inh | CBX7 inh z-score
COc1ccc(NC(=O)C2CCN(S(=O)(=O)c3cccnc3)CC2)c(OC)c1 | 1.1 | 2.8
CCC1CCCCN1C(=O)Cn1c(SCc2ccc(F)cc2)nc2ccncc21 (configuration not stated) | 0.99 | -0.14
Cc1[nH]c2ccccc2c1Cc1nc2ccccc2[nH]1 | 0.91 | -1.7
Cc1nc2c(C(=O)NCC3CCCO3)cnn2c(C)c1Cc1ccccc1Cl (configuration not stated) | 1 | 0.57
COc1ccc2cc(CCNC(=O)c3ccccc3OC)c(=O)[nH]c2c1 | 0.99 | -0.22
Clc1ccccc1-c1nnc(-c2cccnc2)o1 | 0.98 | -0.29
Cc1nn(C)cc1CNC(=O)c1cc(-c2ccccc2)nc2ccc(Br)cc12 | 0.98 | -0.44
Cc1ccc(Cn2c(COc3ccc(C)cc3)nc3ccccc32)cc1 | 0.89 | -4
COc1ccc(CC(=O)Nc2c3c(nn2C(C)(C)C)CSC3)cc1OC | 1 | 0.49
O=C(CSc1nccn1-c1ccc(Cl)cc1)Nc1ccc(F)cc1 | 0.57 | -1.5
Cc1c(C(=O)NC2CCCCC2)sc2ncnc(N3CCCCC3)c12 | 0.84 | -2.3
COc1ccc(C)cc1NC(=O)C1CCCN(S(=O)(=O)c2cccs2)C1 (configuration not stated) | 1 | 1.4
CCn1c(C(=O)N2CCC(C(=O)NCCc3ccc(C)cc3)CC2)cc2sccc21 | 0.78 | -0.97
Cc1ccnc(Nc2nc(-c3c(C)nc4cc(C)ccn34)cs2)c1 | 0.68 | -0.38
Cc1ccc(S(=O)(=O)N2CCC(c3nc4cc(C(=O)O)ccc4n3C3CCCCC3)CC2)cc1 | 0.91 | -2.2
COc1ccc2nc(N3CCCC(C(=O)NCc4cccnc4)C3)sc2c1 (configuration not stated) | 1 | 0.57
CCc1nnc(SCC(=O)Nc2cccc(C)c2)nc1CC | 1 | -0.021
Cc1ccc(OCCn2c(=O)n(C)c3ccccc32)cc1 | 1 | 0.92
Cn1cc(CCCC(=O)NCc2ccc(F)cc2Cl)c2ccccc21 | 0.57 | -8.5
Cc1ccc(NC(=O)CN(C)S(=O)(=O)c2cccc3cccnc23)cc1Cl | 0.97 | -0.7
COc1ccc(OC)c(C2=NOC(C(=O)NCc3ccc(F)cc3)C2)c1 (configuration not stated) | 1 | -0.12
Cc1ccc(S(=O)(=O)NCc2ccc(C(=O)NCCC(C)C)cc2)cc1 | 1 | 0.25
O=C(Cn1cc2c(n1)CCCC2)N1CCC(Cc2ccccc2)CC1 | 1 | 1.3
O=C(CC1Sc2ccc(C(F)(F)F)cc2NC1=O)Nc1ccccc1 (configuration not stated) | 0.99 | -0.21
COc1ccc(Nc2cc(C(=O)NCCCN3CCCCCC3)c3ccccc3n2)cc1 | 0.89 | -2.1
c1ccc(-c2nc3c4ccccc4nc(NCCCN4CCCCCC4)n3n2)cc1 | 1 | 0.51
COc1cccc(N2C(=O)C3C4c5ccccc5C(CO)(c5ccccc54)C3C2=O)c1 (configuration not stated) | 1 | 1.1
Cn1c(=O)c(=O)n(C)c2cc(S(=O)(=O)NCc3cccs3)ccc21 | 1 | 0.055
COc1ccc(NC(=O)c2c(NCc3ccncc3)sc3c2CCC(C)C3)c(OC)c1 (configuration not stated) | 0.62 | -5.3
CCN(CC)C(=O)Cn1ncc2c1-c1ccccc1OC2 | 1 | 0.15
Cc1ccc2nc(NC(=O)c3ccccc3Oc3ccccc3)sc2c1 | 0.91 | -0.21
COc1cccc(-c2nn(C)c3sc(C(=O)NC(C)C)cc23)c1 | 0.83 | -2.2
CCc1ccccc1NC(=O)c1onc(C)c1Cl | 1 | 0.98
COc1ccc(NC(=O)C2(NS(=O)(=O)c3cccc4cccnc34)CCCCC2)c(OC)c1 | 0.57 | -20
COc1cc2c(C(=O)Nc3cccc(Cl)c3)cn(C)c(=O)c2cc1OC | 1 | 0.64
CCc1cccc(C)c1NC(=O)c1c(-c2c(Cl)cccc2Cl)noc1C | 0.99 | -0.33
Cc1nc2cc(-c3ccc(Cl)cc3)nn2c(C)c1CCC(=O)NCCC(C)C | 1 | 0.21
COc1ccc(C(=O)CSc2nnc(Cc3cc(=O)[nH]c(=O)[nH]3)n2-c2ccc(F)cc2)cc1 | 1.1 | 2.6
CCCN(CCC)CCCNC(=O)c1ccc2c(c1)N(Cc1c(F)cccc1Cl)C(=O)CS2 | 1.1 | 0.13
COc1ccccc1CNC(=O)CNC(=O)c1cn(-c2ccccc2OC)c(=O)c2ccccc12 | 1 | 0.39

3 compounds picked at random from the list so far, as already listed:
SMILES | CBX7 inh | CBX7 inh z-score
Cc1ccc(Cn2c(COc3ccc(C)cc3)nc3ccccc32)cc1 | 0.89 | -4
Cc1ccc(NC(=O)CN(C)S(=O)(=O)c2cccc3cccnc23)cc1Cl | 0.97 | -0.7
Cn1c(=O)c(=O)n(C)c2cc(S(=O)(=O)NCc3cccs3)ccc21 | 1 | 0.055

Back to the main list with the 7 entries that preceded the break.
SMILES | CBX7 inh | CBX7 inh z-score
COc1ccc(NC(=O)C2(NS(=O)(=O)c3cccc4cccnc34)CCCCC2)c(OC)c1 | 0.57 | -20
COc1cc2c(C(=O)Nc3cccc(Cl)c3)cn(C)c(=O)c2cc1OC | 1 | 0.64
CCc1cccc(C)c1NC(=O)c1c(-c2c(Cl)cccc2Cl)noc1C | 0.99 | -0.33
Cc1nc2cc(-c3ccc(Cl)cc3)nn2c(C)c1CCC(=O)NCCC(C)C | 1 | 0.21
COc1ccc(C(=O)CSc2nnc(Cc3cc(=O)[nH]c(=O)[nH]3)n2-c2ccc(F)cc2)cc1 | 1.1 | 2.6
CCCN(CCC)CCCNC(=O)c1ccc2c(c1)N(Cc1c(F)cccc1Cl)C(=O)CS2 | 1.1 | 0.13
COc1ccccc1CNC(=O)CNC(=O)c1cn(-c2ccccc2OC)c(=O)c2ccccc12 | 1 | 0.39
COc1cc(OC)c(NC(=O)c2ccc3c(c2)NC(=O)c2ccccc2S3)cc1Cl | 0.99 | -0.28
COc1ccccc1-c1cc(=O)n(CC(=O)NCc2ccc(C)cc2)c2c1CCCC2 | 0.99 | -0.15
CCc1c(C)nc2cc(-c3ccc(C)cc3)[nH]n2c1=O | 1&1.1 | 0.78&1.3
CCOc1cc(/C=C\c2cc(C(F)(F)F)[nH]c(=O)n2)ccc1OC | 1 | 0.48
CCc1ccc2oc(-c3ccc(C)c(NC(=O)c4cccnc4)c3)nc2c1 | 0.81 | -2.2
CN(c1ccccc1)S(=O)(=O)c1ccc(C(=O)Nc2nnc(C3CC3)o2)cc1 | 0.55 | -4.3
O=C(c1cc(-c2ccc(F)cc2)on1)N1CCN(Cc2ccccc2)CC1 | 1 | 0.23
Cc1ccc(-c2nc(C(=O)NCCCN3CCCCCC3)c(C)o2)cc1 | 1 | 0.74
COc1ccccc1NC(=O)C1CCCN(S(=O)(=O)c2c(C)noc2C)C1 (configuration not stated) | 1.1 | 0.46
Cc1ccc(-n2nc3c(c2NC(=O)c2cccc(C)c2)CS(=O)(=O)C3)cc1 | 1.1 | 0.65
COC(=O)c1ccc2c(c1)N(Cc1ccc(C)cc1)C(=O)CS2 | 0.99 | -0.17
CCOc1ccc(Nc2nc(-c3ccccn3)cs2)cc1 | 0.018* | -14*
O=C(Nc1ccccc1Cl)C1CCCN(C(=O)c2cnn(-c3ccccc3)c2-n2cccc2)C1 (configuration not stated) | 0.86 | -1
CCc1ccccc1NC(=O)c1cc(-c2ccc(Cl)c(Cl)c2)nc2ccccc12 | 0.97 | -0.11
O=C(NCCc1ccc(Cl)cc1)c1ccc2c(c1)N(Cc1ccccc1)CCS2 | 0.87 | -0.17
CCN(c1ccccc1)S(=O)(=O)c1ccc2[nH]cc(C(=O)N3CCC(C)CC3)c(=O)c2c1 | 1.1 | 2.1
C=C(C)Cn1c(CCNC(=O)C(C)(C)C)nc2ccccc21 | 1.1 | 1.6
CCC(=O)N1CCc2cc(S(=O)(=O)N(C)c3cc(C)ccc3C)ccc21 | 1.2 | 2.1
Cc1ccc(NC(=O)Cn2cnc3sc(C(=O)NCCC4=CCCCC4)c(C)c3c2=O)cc1Cl | 0.85 | -2.1
CC1=Nc2cc(C(=O)NCc3ccccc3)ccc2Sc2c(C)ccc(C)c21 | 1 | -0.0074
CCN(CC)CCCNC(=O)c1n[nH]c(=O)c2ccccc12 | 0.97 | -0.55
CCn1cnc2sc(C(=O)Nc3cc(C)ccc3OC)c(C)c2c1=O | 1.1 | 0.4
CCCN(CCC)S(=O)(=O)c1ccc2c(c1)CC(C)N2C(=O)CC (configuration not stated) | 0.84 | -0.66
Cc1cc(C(=O)NCCc2ccc(Cl)cc2)n(-c2ccccc2)n1 | 1 | 0.16
N#Cc1nc(-c2ccc(F)cc2)oc1NCCN1CCOCC1 | 1 | -0.052
CCCn1c(CCNC(=O)c2ccc(OC)c(OC)c2)nc2ccccc21 | 1.1 | 0.98
Cc1ccn2c(Nc3ccccc3C)c(-c3cccc(Br)c3)nc2c1 | 1 | 0.4
CC(=O)Nc1c2c(nn1-c1cccc(Cl)c1)CS(=O)(=O)C2 | 1.2 | 1.3
CCCOc1ccc(C(=O)Nc2ccc(-c3nc4cc(CC)ccc4o3)cc2)cc1 | 1.1 | 2.1
CCC(C)NC(=O)CCC(=O)Nc1ccc2nc(N3CCOCC3)cc(C)c2c1 (configuration not stated) | 1 | -0.082
O=C(NCc1ccc2c(c1)OCO2)c1cc(=O)[nH]c2ccc(Br)cc12 | 0.96 | -0.73
C=C(C)Cn1c(C2CC(=O)N(c3ccc(CC)cc3)C2)nc2ccccc21 (configuration not stated) | 0.91 | -2
COc1ccc(C(O)c2nccn2Cc2ccccc2)cc1 (configuration not stated) | 0.86 | -0.31
O=C(CSc1nccn1-c1ccc(Cl)cc1)Nc1ccccc1 | 0.95 | -0.41
COc1ccccc1NC1c2ccccc2C(=O)N1Cc1ccccc1Cl (configuration not stated) | 0.98 | -0.052
Cc1ccccc1OCCn1c(C)nc2ccccc21 | 1 | 0.12
CCc1cccc(N(CC)C(=O)CCc2nc(-c3ccc(C)cc3)no2)c1 | 1.2 | 2.2
Cc1ccc(-c2nc(CS(=O)(=O)CC(=O)NCCC3=CCCCC3)c(C)o2)cc1 | 0.93 | -0.72
Cc1nccc2[nH]c(=O)c(C(=O)NCc3ccc(Cl)cc3)cc12 | 1.2 | 2.7
CCC1=Nc2cc(C(=O)NCCCOC)ccc2Sc2ccc(Cl)cc21 | 0.95 | -2.5
O=C(CSc1nccn1-c1ccc(F)cc1)Nc1cccc2ccccc12 | 0.8 | -1.6
O=C1CNCc2[nH]c3ccccc3c2N1c1ccccc1 | 1 | 0.019
CCOC(=O)c1cnc2c(C)cc(Cl)cc2c1NCCc1ccccc1 | 2 | 3.4
Cc1cc(C)cc(NC(=O)c2cccc(NC3=NC4CS(=O)(=O)CC4S3)c2)c1 (configuration not stated) | 1.1 | 2.1
O=C(c1ccccc1)c1ccc2[nH]c(=O)[nH]c2c1 | 1 | 0.0074
Cc1ccc(NC(=O)c2ccc(CNc3c(N4CCCCC4)c(=O)c3=O)cc2)cc1F | 0.9 | -0.22
Cc1cccc2nc(-c3ccsc3)c(Nc3ccc(C(C)C)cc3)n12 | 0.81 | -1.5
Cc1cc(C)cc(-n2ccnc2SCC(=O)Nc2ccc(F)cc2F)c1 | 0.73 | -10
O=C1C2C3c4ccccc4C(c4ccccc43)C2C(=O)N1c1cc(Cl)ccn1 (configuration not stated) | 1 | 1.4
Clc1ccc(SCc2nc3sccn3c2Br)cc1 | 0.98 | -0.46
CNCCc1c(-c2ccccc2)n(-c2ccccc2)c2ccccc12 | 0.53 | -8.9
Cc1ccccc1OCc1nc2c3c4c(sc3ncn2n1)C(C)(C)NC(C)(C)C4 | 0.97 | -0.64
CCn1c(SCC(=O)Nc2nnc(C)s2)nnc1-c1c[nH]c2ccccc12 | 1.2 | 1.2
COc1ccccc1CNC(=O)c1ccc(CNc2c(N3CCOCC3)c(=O)c2=O)cc1 | 1.2 | 1.3
Cc1cccc(-c2nc(C(=O)NCCc3ccc(Cl)cc3)c(C)o2)c1 | 0.78 | -3
CCOC(=O)C1CCCN(c2c(NCCCc3ccccc3)c(=O)c2=O)C1 (configuration not stated) | 0.94 | -1.4
CCc1nc2c(cnn2-c2ccc(C)cc2)c(=O)n1-c1ccc(C)cc1 | 0.91 | -1.7
OCCNc1ccc2nnc(C(F)(F)C(F)(F)C(F)(F)F)n2n1 | 1.2 | 2.2
O=C(CSc1nccn1-c1ccc(F)cc1)Nc1ccc(OC(F)(F)F)cc1 | 0.5 | -0.66
CCOc1ccc(-n2c(/C=C/c3ccccc3F)nc3cc(OC)c(OC)cc3c2=O)cc1 | 1.2 | 4.6
Other results.
SMILES | CBX7 inh | CBX7 inh z-score
O=C(Cn1nc(-c2ccccc2)nc1-c1ccccc1)Nc1cccc(Cl)c1 | 1 | 0.3
CC1CCCCN1S(=O)(=O)c1ccc(C(=O)Nc2nnc(C3CC3)o2)cc1 (configuration not stated) | 0.00088* | -2.8*
CCCCc1c2c(nn1-c1cc(Cl)ccc1OC)CC(C)(C)CC2=O | 0.97 | -0.69
COc1cc(C)c(C)cc1S(=O)(=O)N1CCCCC1c1cccnc1 (configuration not stated) | 0.86 | -0.4
COc1ccc(Cc2nc3cc(C)c(C)cc3[nH]c2=O)cc1Br | 0.97 | -1
COc1ccccc1-c1nnc(-c2cc3c(ccc4ccccc43)oc2=O)o1 | 0.88 | -1.3
O=C(CN1C(=O)CC(c2ccccc2)Sc2ccccc21)NCc1ccccc1Cl (configuration not stated) | 0.89 | -1.9
CC1CCCN(CCCNC(=O)Cn2nc(-c3ccccc3)ccc2=O)C1 (configuration not stated) | 1.1 | 1.9
Cc1ccc(C(=O)CSc2nc3sc(C)c(C)c3c(=O)[nH]2)c(C)c1 | 1.1 | 2.1

Source: PubChem (several laboratories)
